Assay outcomes deposited in PubChem by several laboratories.
Bead autofluor – flagged as autofluorescent in microsphere protease counterscreen; AID 624483; fluorescence intensity (no concentration beside the values); compound autofluorescence counterscreen, microsphere flow cytometry; hits give high values; hit rate 3.1% among 360,000;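 active = at least 3 SD above the mean of all compounds, about 16000 in these data; inconclusive = too few beads counted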;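 also: 100 nL of 1 mM stock went into each well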
BJeLR viability – kills HRASV12-expressing BJeLR cells. inhibition, % (concentration not given with the values). hit rate 0.17% among 300,000. BJeLR (HRASV12) viability, CellTiter-Glo ATP luminescence, 48 h; reference of the scale not given here;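 active = replicate mean above 50%; inconclusive = above 50% but judged a plate artefact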;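 also: 50 nL library stock added to about 25 µL; numbers are from one replicate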
Mtb hypoxia inh – reduces hypoxia-regulated biosensor signal in M. tuberculosis | AID 1159583 | fluorescence inhibition, % (test concentration not listed) | M. tuberculosis hypoxia-regulated fluorescent reporter, fluorescence | hit rate 0.1% among 300,000;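 active = 35 to 45% if threefold the growth effect, above 45% if 1.5-fold the growth effect; inactive = the rest, general growth blockers included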;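 also: wells of about 50 µL received 100 nL stock; 0% = vehicle wells and 100% = reference inhibitor wells; whole bacteria with a GFP reporter of the hypoxia response; strong numbers were not always called active; many hits fall short of the cut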
Sa ugtP lethal – compounds lethal to S. aureus RN4220 ugtP deletion mutant | OD600 growth, 16 h; some inactives read as strong as hits | hit rate 0.54% among 330,000 | growth inhibition, % (test concentration not listed);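 active = z-score under -3 and OD600 up to 0.15 on both plates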;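 also: plate controls were untreated wells for no effect and antibiotic for full effect; wells of about 80 µL received 100 nL stock; the first replicate is given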
PrP UTR inh – inhibition of PrP 5' UTR reporter expression; cell-based PrP 5' UTR mRNA reporter, plate reader; inhibition, % (concentration not given with the values); hit rate 0.35% among 340,000; AID 488862;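 active = every replicate at 50% or more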;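 also: 0 = median of the neutral control wells; tested in H4 reporter cells; numbers are from one replicate; inactives centre near -14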
Sa RN4220 lethal – kills Staphylococcus aureus RN4220. S. aureus RN4220 growth, OD600, 16 h. inhibition, % (test concentration not listed). hit rate 0.33% among 330,000. AID 1259311;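 active = z-score of -3 or lower and OD600 up to 0.18 on both plates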;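 also: plate controls were untreated cells for no effect and reference antibiotic for full effect; stock transfer was 100 nL into about 80 µL; one replicate is shown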
Mtb hypoxia inh growth – further read-out of Mtb hypoxia inh, marked with its call; growth inhibition, %; measured here: M. tuberculosis growth (absorbance);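 0% = vehicle and 100% = reference antibiotic; read after six days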
Active calls of the source: *; ? = inconclusive; nt = not tested or not shown; & = joins results of further samples. No enrichment for hits (roughly 4% active in at least one column).

SMILES | Bead autofluor | BJeLR viability | Mtb hypoxia inh | Mtb hypoxia inh growth | Sa ugtP lethal | PrP UTR inh | Sa RN4220 lethal
CC1CCN(S(=O)(=O)c2ccc3c(c2)N(CC(=O)NCCCN2CCCCC2)C(=O)CS3)CC1 | 6160 | 4 | 6 | 1 | 1 | 2 | 1.0
CCOc1ccc(C(=O)C2CCN(CC(=O)Nc3nccs3)CC2)cc1 | 4048 | -15 | 10 | 5 | 4 | -16 | 4.5
Cc1cc(N2CCN(C(=O)OC(C)(C)C)CC2)n2ncnc2n1 | 3136 | 6 | 5 | 5 | 0 | -26 | 1.8
O=C(COC(=O)c1ccc(Br)o1)Nc1ccc2[nH]c(=O)[nH]c2c1 | 3965 | nt | -9 | 4 | -7 | 0 | -2.4
COc1ccc(C=NO)cc1COc1ccc(NC(C)=O)cc1 | nt | nt | -4 | -1 | -4 | nt | 1.4
CCN(CC)S(=O)(=O)c1ccc(O)c(NC(=O)c2ccc(N3CCOCC3)c([N+](=O)[O-])c2)c1 | 7721 | 6 | -1 | -1 | -5 | -25 | -3.0
N/C(=N\OC(=O)Cc1ccccc1[N+](=O)[O-])c1ccccn1 | 2988 | 5 | nt | nt | nt | -18 | nt
CCOC(=O)/C(C#N)=C/c1cc2cc(C)c(C)cc2nc1Cl | 3939 | -5 | 16 | 5 | -1 | -12 | -1.9
COc1ccccc1OCC(=O)Nc1ccccn1 | 22764* | 16 | 9 | 10 | 3 | -49 | 7.8
CCC(C)CCCCCCCCCCC(=O)O (stereo unspecified) | 5312 | 2 | nt | nt | 7 | -30 | -4.6
Cc1ccc(OCC(O)CNCc2ccccc2)cc1C (stereo unspecified) | 4098 | -1 | 7 | 0 | 4 | -10 | 1.5
CN(C)c1nc(NCc2ccccc2)nc(SCC(=O)Nc2ccccc2)n1 | 10937 | 1 | 1 | -1 | -10 | -27 | 5.0
Cc1ccccc1NC(=O)/C(C#N)=C\c1cc(C)n(-c2ccc(C(=O)O)cc2)c1C | 4527 | 1 | 8 | 5 | 9 | -19 | 2.7
Oc1ccc(-c2csc(Nc3ccccn3)n2)c(O)c1 | nt | -2 | 13 | 8 | -5 | -77 | 5.5
CC1(C(=O)N2CC3(CC(c4cccc(NC(=O)CC(c5ccccc5)c5ccccc5)c4)=NO3)C[C@@H]2C(N)=O)CC1 (stereo partly specified) | 3603 | 8 | nt | nt | nt | -12 | nt
Cc1ccc(C(=O)Nc2cnc3sc(C)nn3c2=O)cc1 | 2688 | -6 | 5 | 7 | -7 | -56 | 5.7
CCC(COC(=O)Nc1cccc(C)c1)NC(=O)OCC(C)C (stereo unspecified) | 3560 | 7 | 9 | 17 | -2 | -42 | -2.1
CCOC(=O)C(C)Oc1ccc(C2NC(=O)NC(C)=C2C(=O)Nc2ccccc2C)cc1 (stereo unspecified) | 10563 | -1 | 0 | 5 | 13 | -12 | 4.0
CCOC(=O)COc1cc(-n2c(=S)[nH]c3cc(OC)c(OC)cc3c2=O)c(Cl)cc1Cl | 2687 | 1 | -8 | -9 | -37 | -12 | -1.9
CCOC(=O)CSc1cc(CSc2ccccc2)nc(-c2ccccc2)n1 | 2756 | 1 | nt | nt | 13 | -5 | 0.4
COc1cc2c(cc1OC)CN(CC(=O)Nc1ccccc1SC)CC2 | 3404 | nt | 11 | 0 | 3 | -18 | 6.0
C/C(=N\NC(=O)c1ccc(COc2ccccc2)cc1)c1ccncc1 | 2557 | 2 | nt | nt | nt | -9 | nt
CCCCNS(=O)(=O)c1ccc(NC(=O)C(Sc2ccccc2)c2ccccc2)cc1 (stereo unspecified) | 2005 | -8 | 6 | 6 | -18 | -14 | 0.3
CCC1(c2ccccc2)C(=O)N(COC)C(=O)N(COC)C1=O | 5458 | 4 | nt | nt | nt | -20&-37 | nt
O=C(CSc1ccc2c(c1)OCCO2)Nc1ccc(Br)cc1 | 2805 | -19 | nt | nt | -5 | -11 | -1.2
COc1ccc(NC(=O)C(c2ccc(C)cc2)N(C)C(=O)c2ccc(=O)[nH]c2)cc1 (stereo unspecified) | 2509 | 4 | 7 | 0 | 2 | -23 | 1.7
Cc1ccc2nc(N(CCN(C)C)C(=O)c3ccc4ccccc4c3)sc2c1 | 6495 | -14 | -10 | 1 | -7 | -20 | -2.5
COc1ccc(CCN2CC(C(=O)NCC3(O)CCCCC3)CCC2=O)cc1 (stereo unspecified) | ? | -14 | -6 | -8 | 13 | -8 | 5.5
O=S(=O)(Nc1nc2ccccc2nc1NCC1CCCO1)c1cc(Cl)ccc1Cl (stereo unspecified) | 4724 | -4 | 15 | 10 | 14 | -102 | 11
O=C(Nc1ccc(Cl)cn1)C1CCCN1S(=O)(=O)c1ccccc1 (stereo unspecified) | 2762 | 6 | nt | nt | 2 | 2 | 1.1
CCS(=O)(=O)c1ncc(CO)n1CCc1ccccc1 | 4174 | 8 | 5 | -1 | 3 | -4 | 3.7
O=C(NN=Cc1ccc[nH]1)c1c[nH]c2ccccc12 | nt | nt | 12 | 0 | 9 | nt | 4.3
CCN(CC)S(=O)(=O)c1cc(NC(=O)COc2ccc(C#N)cc2OC)ccc1C | 2543 | -1 | 11 | 7 | -14 | -16 | 5.8
O=C(COc1ccc(S(=O)(=O)N2CCOCC2)cc1Cl)NC1CCCCC1 | 4451 | 8 | -2 | 0 | 0 | -4 | -1.6
CCSc1nc(-c2ccc(OC)cc2)cc(-c2ccccc2)c1C#N | 10851 | 12 | -2 | 5 | 29 | nt | -2.1
CCCCn1c(=O)[nH]c(=O)c2c1nc(-c1ccc(C#N)cc1)n2C1CCCC1 | 5212 | -3 | nt | nt | -1 | 0 | -0.2

Complete entries, looked up by structure. Order of values: Bead autofluor	BJeLR viability	Mtb hypoxia inh	Mtb hypoxia inh growth	Sa ugtP lethal	PrP UTR inh	Sa RN4220 lethal
`COc1ccc(CCN2CC(C(=O)NCC3(O)CCCCC3)CCC2=O)cc1` (stereo unspecified) as listed: ?	-14	-6	-8	13	-8	5.5
`O=C(CSc1ccc2c(c1)OCCO2)Nc1ccc(Br)cc1` as listed: 2805	-19	nt	nt	-5	-11	-1.2
`O=C(Nc1ccc(Cl)cn1)C1CCCN1S(=O)(=O)c1ccccc1` (stereo unspecified) as listed: 2762	6	nt	nt	2	2	1.1
`COc1ccc(NC(=O)C(c2ccc(C)cc2)N(C)C(=O)c2ccc(=O)[nH]c2)cc1` (stereo unspecified) as listed: 2509	4	7	0	2	-23	1.7

Continued.
SMILES | Bead autofluor | BJeLR viability | Mtb hypoxia inh | Mtb hypoxia inh growth | Sa ugtP lethal | PrP UTR inh | Sa RN4220 lethal
COc1cccc(NC(=O)[C@@H](NC(=O)N2C[C@H]3C[C@@H](C2)c2cccc(=O)n2C3)C(C)C)c1 | 4923 | -3 | nt | nt | 4 | -34 | 0.4
Cc1ccc(C(=O)N/C(=C\c2ccc(F)cc2)C(=O)NCc2ccncc2)cc1 | 7313 | 2 | 6 | 0 | -1 | -15 | 2.8
O=C(c1cccc(S(=O)(=O)N2CCCC2)c1)N(Cc1ccco1)C1CCS(=O)(=O)C1 (stereo unspecified) | 4891 | -5 | 4 | 0 | 9 | -26 | 4.3
COCCNC(=O)CC(=O)NN=Cc1ccc(C(=O)OC)cc1 | nt | nt | -3 | 2 | 2 | nt | 7.5
CC(On1nnc2ccc(S(=O)(=O)N3CCOCC3)cc21)C(=O)Nc1ccccc1F (stereo unspecified) | nt | -2 | 12 | 3 | 1 | -12 | 2.4
O=C(Cc1ccsc1)Nc1ccc(S(=O)(=O)C(F)F)cc1 | 4291 | 2 | 11 | -3 | -2 | -20 | 1.8
CC(=O)c1ccc(NC(=S)NC(C)CCc2ccccc2)cc1 (stereo unspecified) | 3416 | 26 | 7 | 0 | -15 | -8 | 0.7
Cn1cnc2c(SCc3ccccc3)ncnc21 | 3592 | nt | 14 | 9 | 10 | -41 | 5.7
Clc1ccc(-c2nc(-c3ccncc3)no2)c(Cl)c1 | 3883 | 6 | 3 | 4 | 7 | -50 | 10
Oc1ccc(CN2CCN(c3ccccc3)CC2)c2cccnc12 | 4001 | -14 | 0 | 2 | -8 | -10 | 4.1
CC1C/C(=N\Nc2ccc(S(N)(=O)=O)cc2[N+](=O)[O-])CC(C)(C)C1 (stereo unspecified) | 9628 | -9 | nt | nt | nt | -27 | nt
N#Cc1c(-c2cccs2)nc(SCC(=O)c2cccs2)[nH]c1=O | 2559 | 2 | nt | nt | 40 | -15 | 3.7
Cc1cc(C)c(C(N)=O)c(NC(=O)Nc2ccccc2Cl)n1 | 4372 | 7 | 4 | 3 | 6 | -31 | 4.2
COc1ccc(OC)c(C(=O)c2ccc(C(=O)Nc3ccc4ccccc4c3)cc2)c1 | 2334 | 8 | -3 | 3 | 0 | -31 | -3.0
Clc1ccc(-c2nnc3n2-c2ccccc2SC3)cc1 | 6289 | 8 | -3 | -3 | -6 | -16 | -1.7
O=C(CCN1C(=O)c2cccc3cccc(c23)C1=O)N1CCN(c2ccccc2F)CC1 | 2428 | -21 | 9 | 6 | 7 | -19 | 0.9
O=C(CC(=O)NC1CCCCC1)NN=Cc1ccc(Cl)cc1 | nt | nt | 5 | 2 | -3 | nt | 7.0
O=C(Cc1cccs1)Nc1nc2ccccc2s1 | 2855 | 2 | 12 | 3 | -8 | -60 | -10
CC1CN(C(=O)CNC(=O)Cc2cccc3ccccc23)CC(C)O1 (stereo unspecified) | 6137 | nt | 10 | 8 | 3 | nt | 1.2
COC(=O)C1=C(C)OC(N)=C(C#N)C1c1c(C)nn(-c2ccccc2)c1Cl (stereo unspecified) | 3332 | -14 | 6 | 9 | 10 | -5 | 10
CC(C)Nc1ccc(C(CC(N)=O)NC(=O)Cc2ccc(Br)cc2)cc1[N+](=O)[O-] (stereo unspecified) | 3249 | -13 | 10 | 6 | -12 | -35 | 1.0
COc1ccc(CCN2C(=O)NC(NS(=O)(=O)c3ccccc3)(C(F)(F)F)C2=O)cc1OC (stereo unspecified) | 5014 | -17 | -10 | -4 | 9 | -25 | 2.5
CCOC(=O)N/N=C\c1ccc(OC/C=C/c2ccccc2)cc1 | 3790 | 2 | nt | nt | nt | -19 | nt
O=S(=O)(Nc1ccc(S(=O)(=O)N2CCCC2)cc1)c1ccc(F)cc1 | 6096 | -8 | 7 | 7 | 2 | -17 | 5.7
COc1ccccc1CNC(=O)COc1ccc2c(c1)CCC2 | 4500 | 3 | -16 | 6 | -14 | 16 | 0.6
Cc1ccc(C=NNC(=O)Cc2ccc(Cl)cc2)s1 | nt | nt | 6 | -9 | 2 | nt | 0.3
O=S1(=O)CCOC[C@H](Cc2ccccc2)N1Cc1ccc(F)cc1 | 4062 | 3 | nt | nt | nt | -5 | nt
CC(CCc1ccccc1)NC(=O)COC(=O)C12CC3CC(CC(Br)(C3)C1)C2 (stereo unspecified) | 10468 | -6 | 5 | -2 | -25 | -1 | 0.3
COc1cccc(/C=C/C(=O)NCC2CCCCC2)c1 | 5601 | -8 | 14 | 14 | -3 | -20 | 2.7
Cc1ccc(S(=O)(=O)c2nc(NCc3ccc4c(c3)OCO4)sc2Cl)cc1 | 25130* | -13 | 4 | 3 | -24 | 2 | -8.2
Cc1cc([N+](=O)[O-])ccc1NCc1cccc([N+](=O)[O-])c1 | 10891 | 8 | -1 | 8 | -20 | -10 | -6.1
O=C(c1cccnc1)N1CCN(Cc2cccc(Br)c2)CC1 | 7329 | -5 | 4 | -5 | 7 | -10 | 3.1
Cc1ccccc1C(=O)N/N=C/c1ccsc1C | 11148 | 19 | nt | nt | nt | -36 | nt
CCCCCCCCCc1nc2sc3c(c2c(=O)n1NC(=O)c1ccccc1[N+](=O)[O-])CC(C)(C)OC3 | 2261 | 6 | -6 | -1 | 45 | -12 | 14
CN(C1CCS(=O)(=O)C1)S(=O)(=O)c1cccs1 (stereo unspecified) | ? | -3 | 0 | -1 | 8 | -27 | 1.7
CN(CC(=O)Nc1ccc(F)cc1)C(=O)c1cc(-c2cccs2)nn1-c1ccccc1 | 5658 | nt | -10 | 4 | -9 | -1 | 6.8
Cc1cccc(NC(=O)c2nc[nH]c2C(=O)NCCN(CCNC(=O)c2[nH]cnc2C(=O)Nc2cccc(C)c2)CCNC(=O)c2[nH]cnc2C(=O)Nc2cccc(C)c2)c1 | 4058 | nt | 8 | 11 | 1 | -17 | 3.3
Cc1c(C(=O)O)nnn1-c1nonc1N | 4186 | 1 | 4 | 8 | 5 | -3 | 10
